E coli growth: inhibitors of Escherichia coli growth; OD600, 23 h; stronger effect = lower value; OD600 absorbance (concentration not given with the values); 330,000 tested, 0.21% active; AID 1053175;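 active means OD600 absorbance below the run mean of sample wells minus 3.6 SD, in any replicate, cut at about 0.56 in these data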;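 further: stock transfer was 300 nL into about 60 µL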
Active calls of the source: *; & = joins results of further samples.

cpd	SMILES	E coli growth
1	CCOC(=O)C1C2COc3ccc(OC)cc3C2N2C(=O)c3cc(OC)ccc3NC(=O)[C@@]12C (some centres not stated)	0.71
2	COC(=O)[C@]1(CC(C)C)NC(c2ccc(-c3ccc(OC)cc3)cc2)C2C(=O)N(C)C(=O)C21 (some centres not stated)	0.71
3	CC1(C)CC2C3=CCC4[C@@]5(C)CCC(O)[C@](C)(CO)C5CC[C@@]4(C)[C@]3(C)CC3OC1C(O)[C@]32CO (some centres not stated)	0.72
4	COC(=O)C=Cc1ccc2c(c1)S(=O)(=O)N(c1cccc(OC)c1)C2CC(=O)OC (configuration not stated)	0.72
5	COC(=O)C(NC(=O)c1cc(-c2ccccc2)nc2ccccc12)c1ccccc1 (configuration not stated)	0.72
6	Cc1ccc(-c2csc(N3CCCC3C(=O)NCCn3c(-c4ccncc4)nc4ccccc43)n2)cc1 (configuration not stated)	0.63
7	CC(CN1CCCC1CN1C(N)=NCC1Cc1ccccc1)N1CC(Cc2ccccc2)N(CCCC2CCCC2)C1=N (configuration not stated)	0.57
8	COC(=O)[C@]1(CC(C)C)NC(c2ccc(-c3ccc(Cl)c(Cl)c3)cc2)C2C(=O)N(C)C(=O)C21 (some centres not stated)	0.67
9	CCCCCCCCN1C(CC(=O)OC)c2cc(F)ccc2S1(=O)=O (configuration not stated)	0.69
10	Cc1ccc2c(c1)C1CN(C)CCC1N2S(=O)(=O)c1ccc(F)cc1 (configuration not stated)	0.69
11	COc1ccc(C2CC(=O)C=C(c3cccc(OC)c3OC)C2)cc1OC (configuration not stated)	0.67
12	CCN1C(=O)N(S(=O)(=O)c2ccc(C)cc2)C(c2ccccc2)C(C(=O)OC)=C1C (configuration not stated)	0.69
13	COc1ccc(SCC(C)CN2CCC(C(C)(C)C)CCC2=O)cc1 (configuration not stated)	0.69
14	CCOC(=O)C1=CCC2c3c(c4ccccc4n3C)C(=O)C1N2Cc1ccccc1 (configuration not stated)	0.71
15	CC(C)(C)OC(=O)C(Cc1ccccc1)NC(=O)c1nc[nH]c1C(=O)N1CCc2ccccc2C1 (configuration not stated)	0.68
16	CN(C)C1=NCC(Cc2ccccc2)N1CC1CCCCCC1 (configuration not stated)	0.66
17	CC1CN(C(C)CO)C(=O)c2cccc(NS(=O)(=O)c3ccccc3)c2OC1CN(C)S(=O)(=O)c1ccccc1 (configuration not stated)	0.68
18	C=CCN1c2ccccc2[C@]23CC(C(=O)OC)N(C(C)=O)C2=NC(C(=O)OC)=C(C(=O)OC)C13 (some centres not stated)	0.7
19	Cc1ccsc1C=C(C(=O)c1ccc(OC(C)C)cc1)c1nc2ccccc2o1	0.77
20	CC1CN(C(C)CO)C(=O)c2cccc(NS(=O)(=O)c3cccs3)c2OC1CN(C)Cc1ccc(C(F)(F)F)cc1 (configuration not stated)	0.66
21	COC(=O)c1ccc(C=Cc2c(-c3ccsc3)sc3ccccc23)cc1	0.7
22	O=C1CC2c3c(cccc3CN1Cc1ccccc1Br)CC(O)C2O (configuration not stated)	0.7
23	COc1cc(C=C(NC(C)=O)C(=O)Nc2ccc(NC(C)=O)cc2)ccc1OC(C)=O	0.69
24	C=CCSC1=NC(=Cc2cc(OC)c3c(c2)OCO3)C(=O)S1	0.73
25	CC1CN(C(C)CO)C(=O)Cc2cc(NC(=O)C3CCCCC3)ccc2OC1CN(C)S(=O)(=O)c1ccccc1 (configuration not stated)	0.63
26	CN1CCCC1CCNC(=O)c1cccc2c1C(=O)c1ccc(N3CCCC3)cc1S2(=O)=O (configuration not stated)	0.68
27	CCOC1OC(C(=O)N2CCN(Cc3ccccc3)CC2)=CC(c2coc3ccccc3c2=O)C1CCCO (configuration not stated)	0.7&0.68
28	COc1ccc(NC(=O)Nc2cccc3c2OC(CN(C)S(C)(=O)=O)C(C)CN(C(C)CO)C3=O)cc1 (configuration not stated)	0.65
29	COC(=O)c1ccc(C23CC4(C2)C(CN(C)C4c2ccccc2)C3c2ccc(C(F)(F)F)cc2)cc1 (configuration not stated)	0.7
30	COc1ccc(S(=O)(=O)N(C)CC2Oc3ccc(NC(=O)Nc4ccc5c(c4)OCO5)cc3C(=O)N(C(C)CO)CC2C)cc1 (configuration not stated)	0.68
31	O=C1C=C(c2cccc3c2sc2ccccc23)CC(c2ccc(Cl)cc2)C1 (configuration not stated)	0.78
32	COP(=O)(C=Cc1ccccc1)C(O)c1ccc(F)cc1 (configuration not stated)	0.69
33	CCN1C(=O)NC(c2cccs2)C(C(C)=O)=C1C (configuration not stated)	0.64
34	CCN1C(=O)C2C(C)C3=C4C(CC(C(=O)OC)=CC(C(=O)OC)C4C(CC)(CC)C3=O)C2C1=O (configuration not stated)	0.72
35	O=c1ccc2ccc(OC3OC(CO)C(O)C(O)C3O)c(O)c2o1 (configuration not stated)	0.69
36	c1cncc(-c2cn(CC3CCC(C4CCC(Cn5cc(-c6cccnc6)nn5)O4)O3)nn2)c1 (configuration not stated)	0.66
37	CC(=O)OC1CC[C@]2(C)C3=CC[C@]4(C)C(C(C)OC(C)=O)CCC4C3CCC2C1 (some centres not stated)	0.69
38	Cc1ccc2c(c1)C1C(CO2)C(c2ccccc2)[C@]2(C)C(=O)N(Cc3ccc(F)cc3)CC(=O)N12 (some centres not stated)	0.69
39	O=C(CCC1CCCC1)NC(Cc1ccc(O)cc1)C(=O)O (configuration not stated)	0.71
40	CC(=O)CC1c2cc(C(F)(F)F)ccc2S(=O)(=O)N1C1CCCC1 (configuration not stated)	0.68
41	COc1ccc(C2C=CCN(CC(C)C)CC(=O)N2Cc2ccc(F)cc2)cc1 (configuration not stated)	0.7
42	CCCC(CN1CCCC1CN1C(N)=NCC1Cc1ccccc1)N1CC(C(C)CC)N(CCc2ccc(Cl)c(Cl)c2)C1=N (configuration not stated)	0.34*
43	C=CCOC(=O)C1=CC(c2coc3ccccc3c2=O)CC(OCc2ccc(CO)cc2)O1 (configuration not stated)	0.68
44	Cc1ccc(SCC(Cc2ccccc2)N2CCN(CCc3ccccc3)CCC2=O)cc1 (configuration not stated)	0.66
45	CC(C)(C)OC(=O)CC1CC=CCC(CC(=O)NCCO)C(=O)NC(Cc2c[nH]c3ccccc23)COC1=O (configuration not stated)	0.68
46	C#CCOC1CC(n2cnc3c(=O)[nH]c(NC(=O)C(C)C)nc32)OC1CO (configuration not stated)	0.67
47	CC=C1COC(C(=O)NCc2ccccc2)(C(F)(F)F)C=C1C=C1CCCCC1 (configuration not stated)	0.71
48	COc1cc(C=CC(=O)N2CCC=CC2=O)cc(OC)c1OC	0.68
49	COc1cccc(C2=CC(=O)CC(c3ccc(Cl)cc3)C2)c1 (configuration not stated)	0.65
50	CC=CC1=CC(=O)CC(c2ccc(F)cc2)C1 (configuration not stated)	0.63

Shown field by field: entries from further up
28) COc1ccc(NC(=O)Nc2cccc3c2OC(CN(C)S(C)(=O)=O)C(C)CN(C(C)CO)C3=O)cc1 (configuration not stated)
- E coli growth: 0.65
45) CC(C)(C)OC(=O)CC1CC=CCC(CC(=O)NCCO)C(=O)NC(Cc2c[nH]c3ccccc23)COC1=O (configuration not stated)
- E coli growth: 0.68
47) CC=C1COC(C(=O)NCc2ccccc2)(C(F)(F)F)C=C1C=C1CCCCC1 (configuration not stated)
- E coli growth: 0.71
49) COc1cccc(C2=CC(=O)CC(c3ccc(Cl)cc3)C2)c1 (configuration not stated)
- E coli growth: 0.65

Remaining list, next part
cpd	SMILES	E coli growth
51	CC1CN=C(N(C)C)N1CCc1ccc(F)cc1 (configuration not stated)	0.67
52	CCN1C(=O)NC(c2ccc(Br)cc2)C(C(=O)OC)=C1C (configuration not stated)	0.71&0.68
53	OCC1OC(O)C(O)C(O)C1O (configuration not stated)	0.67&0.65
54	CC(C(=O)Nc1ccc2ccccc2c1)C1C[C@]1(C)C(NC(=O)OCc1ccccc1)c1ccccc1 (some centres not stated)	0.67
55	COc1c(OC2OC(CO)C(O)C(O)C2O)cc2c(c1OC)-c1ccc(SC)c(=O)cc1C(NC(C)=O)CC2 (configuration not stated)	0.67
56	O=S(=O)(c1ccc2c(c1)OCCO2)N1CC2CC1CN2S(=O)(=O)c1c(F)cccc1F (configuration not stated)	0.67
57	CC(C)C[C@@]12C(=O)N(c3cccc(F)c3)C(=O)N1C(c1ccc(Br)cc1)C1C(=O)N(C(C)(C)C)C(=O)C12 (some centres not stated)	0.67
58	OCCC1CC(O)C(O)[C@]2(Cc3ccccc3O2)O1 (some centres not stated)	0.6&0.72&0.67
59	O=C(CC1CC=CCCCC(=O)OC(c2ccccc2)CNC1=O)NC(CO)Cc1ccccc1 (configuration not stated)	0.72
60	CC=CC(=O)Nc1cccc(C2=NOC3(C2)CC(C(N)=O)N(C(=O)c2cc([N+](=O)[O-])cc([N+](=O)[O-])c2)C3)c1 (configuration not stated)	0.7
61	CCN1C(=O)C2C(c3ccc(-c4cccc(Cl)c4)cc3)N3CCC[C@@]3(C(=O)OC)C2C1=O (some centres not stated)	0.7
62	O=C1c2ccccc2C(=Cc2ccc3[nH]ccc3c2)N1c1ccccc1	0.71
63	CC1NC(=O)c2cc([N+](=O)[O-])cc(I)c2OCCC(C(N)=O)NC(=O)C(CCCCN)NC1=O (configuration not stated)	0.68
64	[N-]=[N+]=NC1CC(n2ccc(=O)[nH]c2=O)OC1CO (configuration not stated)	0.56
65	CCC(C)C(N)c1cn(C(CCC(=O)O)C(=O)N2CCNCC2)nn1 (configuration not stated)	0.72
66	CCN1C(=O)C2C(c3ccc(C)cc3)N3C(=O)N(c4ccccc4)C(=O)[C@@]3(Cc3ccccc3)C2C1=O (some centres not stated)	0.65
67	CC(C)C[C@@]12C(=O)N(c3cccc(F)c3)C(=O)N1C(c1ccc(F)cc1)C1C(=O)N(C3CCCCC3)C(=O)C12 (some centres not stated)	0.71
68	NC(=O)c1ncn(C2OC(CO)C(O)C2O)c1O (configuration not stated)	0.7
69	COc1ccc(S(=O)(=O)Nc2cccc3c2OC(CN(C)S(=O)(=O)c2cn(C)cn2)C(C)CN(C(C)CO)C3=O)cc1 (configuration not stated)	0.68
70	CCN1C(=O)C2C(C1=O)C(c1ccccc1)N1C(=O)c3ccccc3NC(=O)C21 (configuration not stated)	0.69
71	Cc1sc2ncnc(NC(Cc3c[nH]c4ccccc34)C(=O)O)c2c1C (configuration not stated)	0.69
72	CC(C)c1cc(C(C)C)c(S(=O)(=O)N2c3ccccc3[C@@]3(Br)CC4C(=O)NC(Cc5ccccc5)C(=O)N4C23)c(C(C)C)c1 (some centres not stated)	0.72
73	CCC(C)C(CNC(CNC)C(C)C)NCC(C)c1ccc(CC(C)C)cc1 (configuration not stated)	0.63
74	Nc1ccn(C2CCC(CO)O2)c(=O)n1 (configuration not stated)	0.66
75	CN(C)CCn1nnnc1SCC1=C(C(=O)O)N2C(=O)C(NC(=O)Cc3csc(N)n3)C2SC1 (configuration not stated)	0.061*

3 of the compounds above, with each value named.
#68 NC(=O)c1ncn(C2OC(CO)C(O)C2O)c1O (configuration not stated)
  E coli growth: 0.7
#64 [N-]=[N+]=NC1CC(n2ccc(=O)[nH]c2=O)OC1CO (configuration not stated)
  E coli growth: 0.56
#51 CC1CN=C(N(C)C)N1CCc1ccc(F)cc1 (configuration not stated)
  E coli growth: 0.67

Carrying on.
cpd	SMILES	E coli growth
76	CCCCCC(O)C=CC1C2CC(CO2)C1CC=CCCCC(=O)O (configuration not stated)	0.63
77	CN(C)C1=NCC(Cc2ccccc2)N1CCc1ccc(F)cc1 (configuration not stated)	0.69
78	CN(C)c1ccc(NC(=O)C=Cc2c(Cl)cccc2Cl)cc1	0.69
79	CCn1cc(C=C2SC(=O)N(CC(=O)Nc3ccc4c(c3)OCO4)C2=O)c2ccccc21	0.69
80	CC[C@]12C(=O)N(C)CC(C3C(=O)N(Cc4ccccc4)C(=O)C31)N2C(=O)c1ccc(F)cc1 (some centres not stated)	0.66
81	O=C1C(Cc2ccccc2)NCC=CCC(c2ccc(Cl)cc2)N1Cc1ccc(Cl)cc1 (configuration not stated)	0.73&0.67
82	CCN1C(=O)C2C(c3ccc(C)cc3)N3C(=O)N(c4ccc(OC)cc4)C(=O)[C@@]3(Cc3ccccc3)C2C1=O (some centres not stated)	0.68
83	CCC(C)Sc1ccc(C2C3C(=O)N(C)C(=O)C3[C@]3(C(=O)OC)CCCCN23)cc1OC (some centres not stated)	0.71
84	COc1ccc(N2C(=O)N3C4c5ccccc5OCC4C(c4ccccc4)[C@@]3(C)C2=O)cc1 (some centres not stated)	0.68
85	O=C(C=Cc1cccs1)N1CCC2(CC1)Oc1ccc(F)cc1C(=O)C21CC(c2ccccc2)=NO1 (configuration not stated)	0.72
86	COc1ccc(NC(=O)C2CCCN2S(=O)(=O)c2cccc3cccnc23)cc1 (configuration not stated)	0.66
87	O=C1C(Cc2ccccc2)NCC=CCC(c2ccco2)N1Cc1ccccc1 (configuration not stated)	0.64&0.69
88	COC(=O)C=Cc1ccccc1CN1C(CC(=O)OC)c2ccccc2S1(=O)=O (configuration not stated)	0.66
89	COC(=O)C1CC2CCC(O)CC2N1Cc1ccc(C(F)(F)F)cc1 (configuration not stated)	0.65&0.63
90	O=C(C1=CC(c2csc3ccccc23)CC(OCc2ccc(CO)cc2)O1)N1CCCCCCC1 (configuration not stated)	0.74
91	CCN1C(=O)NC(c2cccc(F)c2)C(C(=O)OC)=C1C (configuration not stated)	0.72
92	O=C1C(=Cc2ccco2)Oc2c1ccc(O)c2CN1CCCCC1	0.66
93	CC(C)C(NC(=O)c1ccccc1)C(=O)OCC(=O)Nc1ccc2c(c1)OCCO2 (configuration not stated)	0.71
94	O=C1C2C(c3ccccc3)CC=CC2C(c2ccoc2)N1Cc1ccccc1 (configuration not stated)	0.65
95	COC(=O)C(C)NC(=O)Nc1ccc(OC)cc1OC (configuration not stated)	0.64
96	OCCC1CC(O)C(O)[C@@]2(OCCc3ccccc32)O1 (some centres not stated)	0.67&0.7

Bioassay records (PubChem)

An excerpt, so the mix of outcomes need not match the whole.
